Screens (PubChem)
HTT prom inh: inhibitors of huntingtin promoter activity; HEK293 HTT promoter firefly luciferase reporter (activity 0% = vehicle and -100% = no light), 24 h; Potency, µM (highest dose often 57.5 µM), for the others: top-dose activity change, negative = inhibition, actives largely listed as inhibitors; 0.93% of 48,000 active; AID 1508623; active means well fitted inhibition curve with a large enough effect; inconclusive means small, poorly fitted or top-dose-only effect; inactive means no such curve, though single readings can be large or run the other way; further: nearly all actives have a fitted effect of over 50% in size
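HEK293 cells carrying firefly luciferase reporters were seeded at 2,500 per well in Opti-MEM and cultured for 24 h. They were then treated with compounds at up to 57.5 uM final for 24 h at 37 degrees C before Dual-Glo luminescence readout.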
PMP22 txn: PMP22 gene transcription modulation | S16 Pmp22-F2sN Schwann cells (luciferase reporters placed in the Pmp22 gene), FLuc/NLuc coincidence luminescence, 24 h | Potency, µM (series often up to 57.5 µM), without a hit: top-dose activity change, negative = inhibition, hits mostly inhibitors | 2% of 43,000 active; active = clear falling dose curves in both reporters; inconclusive = both reporters move, but less clearly or upward; inactive = either reporter flat; the % is the NLuc reporter signal; further: on the % scale 0 is the no-effect control and ±100 the full control effect; some results filed as inactive show a strong effect at the top dose
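S16(c9) Schwann cells with FLuc/NLuc coincidence reporter in the Pmp22 3' UTR; compounds pin-transferred, 24 h at 37C. Dual-luciferase read: FLuc first, then NLuc after Stop&Glo, each 10 min at room temperature.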
An asterisk follows results filed as active; [ ] = another dose, or the depositor's remark. Potency means the concentration at half of the fitted maximal effect.

`CC1CCN(S(=O)(=O)c2cc(C(=O)NCCc3ccccc3)n(C)c2)CC1` gave HTT prom inh -28.3% and PMP22 txn -11.9%.
For COc1ccccc1/C=C/C(=O)Nc1nc2n(n1)C(c1ccc(F)cc1)C=C(c1ccccc1)N2 (centres undefined) the results were HTT prom inh -24.5% and PMP22 txn -21.3%.
`COc1ccccc1CNC(=O)c1ccc(-n2c(C)cc3c2CCCC3)cc1` gave HTT prom inh 10.1% and PMP22 txn inconclusive.
Screening O=S(=O)(NCc1ccccc1)c1ccc(-c2cnc(C3CC3)o2)cc1 returned HTT prom inh inconclusive and PMP22 txn inconclusive.
Screening Cc1ccc(Cl)cc1NC(=O)CN1C(=O)c2cccc3cccc1c23 returned HTT prom inh -7.6% and PMP22 txn inconclusive.
Screening COc1ccc(NC(=O)c2c(NCc3cccs3)sc3c2CCCCC3)c(OC)c1 returned HTT prom inh -9.9% and PMP22 txn inconclusive.
For CCN1C(C(=O)c2ccccc2)=C(OC(=O)COc2ccccc2)c2ccccc2S1(=O)=O the results were HTT prom inh inconclusive and PMP22 txn -26.6%.
`CSc1ncc(Cl)c(C(=O)Nc2ccc(S(=O)(=O)N3CCCC(C)C3)cc2)n1` (centres undefined) gave HTT prom inh inconclusive and PMP22 txn -18.8%.
For COc1ccc(OC)c(CCNC(=O)c2sc3nc4n(c(=O)c3c2C)CCCC4)c1 the results were HTT prom inh 0.7% and PMP22 txn -16.0%.
For O=C(Cn1cnc2nc3c(cc2c1=O)CCCC3)Nc1ccc(F)cc1Cl the results were HTT prom inh -23.0% and PMP22 txn -5.7%.
Cc1cccc(C(=O)Nc2cc3c(cc2N2CCCCC2)n(C)c(=O)c(=O)n3C)c1 was read as HTT prom inh -0.1% and PMP22 txn -33.3%.
OC[C@H]1O[C@@H](OCCc2ccc(O)cc2)[C@H](O)[C@@H](O)[C@H]1O was read as HTT prom inh -31.5%.
`Cc1c(C(=O)OC2CCC(C)CC2)[nH]c2c1C(=O)CC(c1ccccc1Cl)C2` (centres undefined) gave HTT prom inh -21.1% and PMP22 txn 10.1µM*.
For COc1ccccc1C(c1c(O)cc(C)n(Cc2ccco2)c1=O)N1CCCCC1 (centres undefined) the results were HTT prom inh -9.7% and PMP22 txn -6.5%.
Screening O=C(COc1ccccc1Cl)Nc1nc2c(s1)CCCC2 returned HTT prom inh 26.0% and PMP22 txn inconclusive.
`Cc1cccn2c(=O)cc(COc3cccc(NC(=O)c4ccccc4F)c3)nc12` gave HTT prom inh 4.8% and PMP22 txn inconclusive.
Screening Cc1cccc(-n2ncc3c(N4CCN(CCO)CC4)ncnc32)c1 returned HTT prom inh 42.0%[activator] and PMP22 txn -16.0%.
For CCOc1ccc(NC(=O)CSc2nccn2C2CCCC2)cc1 the results were HTT prom inh -13.2% and PMP22 txn 53.9%.
`CCN(c1ccccc1)S(=O)(=O)c1ccc(NC(=O)c2cc(=O)c3c(C)cc(C)cc3o2)cc1` gave HTT prom inh 0.0% and PMP22 txn 1.0%.
`COc1ccc(-c2cn3cccnc3n2)cc1NC(=O)Nc1ccc(Cl)cc1` gave HTT prom inh 36.9%[activator] and PMP22 txn inconclusive.
Screening Cc1cccc(C)c1OCCCCn1c(C2CC(=O)N(c3ccc(F)cc3)C2)nc2ccccc21 (centres undefined) returned HTT prom inh inconclusive and PMP22 txn inconclusive.
`CCn1ccc2cc(S(=O)(=O)N3CCCN(C(=O)Nc4ccc(C)cc4Cl)CC3)ccc21` gave HTT prom inh -23.0% and PMP22 txn inconclusive.
`Nc1c(C(=O)Nc2cccc(C(F)(F)F)c2)c2ccccn2c1C(=O)c1ccccc1` gave HTT prom inh -1.6% and PMP22 txn 5.6%.
CCC(C(=O)Nc1ccc(C)c(C)c1)n1c(=O)c(C(F)(F)F)nc2ccccc21 (centres undefined) was read as HTT prom inh -5.4% and PMP22 txn inconclusive.
COc1ccc(OCC(=O)NCC(c2ccc(OC)cc2)N2CCOCC2)cc1 (centres undefined) was read as HTT prom inh -6.3% and PMP22 txn -16.9%.
For COc1ccc(S(=O)(=O)c2c(C)c(NS(=O)(=O)c3ccccc3)cc(C)c2O)cc1 the results were HTT prom inh -19.8% and PMP22 txn inconclusive.
CCc1ccc(NC(=O)CC(c2cc(OC)c(OC)c(OC)c2)N2Cc3ccccc3C2=O)cc1 (centres undefined) was read as HTT prom inh inconclusive and PMP22 txn 4.9%.
`CCCCn1c(=NC(=O)c2cc3ccccc3o2)c(C(=O)OCC)cc2c(=O)n3ccccc3nc21` gave HTT prom inh -9.2% and PMP22 txn -3.2%.
For O=C(c1ccc2c(c1)N(Cc1cccc(F)c1)C(=O)c1ccccc1S2)N1CCOCC1 the results were HTT prom inh 15.8% and PMP22 txn -10.0%.
Cc1cc(C)n2nc(CNC(=O)c3ccccc3Cl)nc2n1 was read as HTT prom inh 14.4% and PMP22 txn -5.8%.

Quoted from the entries so far for reference:
CCc1ccc(NC(=O)CC(c2cc(OC)c(OC)c(OC)c2)N2Cc3ccccc3C2=O)cc1 (centres undefined) was read as HTT prom inh inconclusive and PMP22 txn 4.9%.
`CCCCn1c(=NC(=O)c2cc3ccccc3o2)c(C(=O)OCC)cc2c(=O)n3ccccc3nc21` gave HTT prom inh -9.2% and PMP22 txn -3.2%.
For O=C(c1ccc2c(c1)N(Cc1cccc(F)c1)C(=O)c1ccccc1S2)N1CCOCC1 the results were HTT prom inh 15.8% and PMP22 txn -10.0%.
Cc1cc(C)n2nc(CNC(=O)c3ccccc3Cl)nc2n1 was read as HTT prom inh 14.4% and PMP22 txn -5.8%.

(cont.)
For CN(C(=O)CSc1cn(CC(=O)N2CCCCC2)c2ccccc12)c1ccccc1 the results were HTT prom inh -5.7% and PMP22 txn 19.9%.
Cc1c(C(=O)OC2CCCC2)[nH]c2c1C(=O)CC(c1ccc(C(C)(C)C)cc1)C2 (centres undefined) was read as HTT prom inh inconclusive and PMP22 txn -20.7%.
Screening O=C(Cc1ccc(NC(=O)N2CCSc3ncccc32)cc1)NCc1ccccc1Cl returned HTT prom inh inconclusive and PMP22 txn inconclusive.
COc1ccc(CCNC(=O)CCCn2c(=O)c3ccccc3n(Cc3ccccc3C)c2=O)cc1OC was read as HTT prom inh 0.3% and PMP22 txn -14.6%.
COc1ccccc1C(=O)NC1(C(F)(F)F)C(=O)Nc2c1c(=O)[nH]c(=O)n2CCc1ccccc1 (centres undefined) was read as HTT prom inh -12.8% and PMP22 txn -72.6%.
For Cn1c(=O)oc2cc(S(=O)(=O)N3CCCC(C(=O)N4CCN(c5ccc(Cl)cc5)CC4)C3)ccc21 (centres undefined) the results were HTT prom inh inconclusive and PMP22 txn 5.12µM*.
Screening O=C(NCc1ccccc1F)C(=O)NCC(c1ccc2c(c1)OCO2)N1CCOCC1 (centres undefined) returned HTT prom inh -17.5% and PMP22 txn -8.5%.
For CCS(=O)(=O)N1CCCc2cc(C(=O)Nc3cc([N+](=O)[O-])ccc3C)ccc21 the results were HTT prom inh inconclusive and PMP22 txn inconclusive.
`CCOC(=O)CNC(c1ccccc1)c1cc(Br)ccc1NC(=O)c1cccc(Cl)c1` (centres undefined) gave HTT prom inh 0.1% and PMP22 txn inconclusive.
`Cc1cccc(-n2c(-c3ccccc3)cn3c4c(=O)[nH]c(=O)n(C)c4nc23)c1` gave HTT prom inh -2.3% and PMP22 txn -9.2%.
`CC(C)c1ccc(NC(=O)CCNS(=O)(=O)c2ccc3c(c2)oc(=O)n3C)cc1` gave HTT prom inh -9.7% and PMP22 txn -5.2%.
For CCC(=O)N1CCc2cc(Br)cc(S(=O)(=O)CCC(=O)NCCc3cccc(C)c3)c21 the results were HTT prom inh -2.3% and PMP22 txn -12.6%.
For Cc1ccc2nc(-c3ccc(NC(=O)COc4ccccc4)cc3)sc2c1 the results were HTT prom inh 41.7%[activator] and PMP22 txn -2.4%.
COc1cccc(C(=O)NC(=O)Nc2ccc(-n3nc(C(F)(F)F)cc3C(F)(F)F)cc2)c1 was read as HTT prom inh 0.0% and PMP22 txn -2.3%.
Screening Cc1cccc(NC(=O)CN2c3ccccc3S(=O)(=O)c3ccccc32)c1C returned HTT prom inh 0.0% and PMP22 txn -6.2%.
For COc1ccc(-n2ncc(C(=O)NCCc3ccsc3)c2C2CCN(C(=O)OC(C)(C)C)CC2)cc1 the results were HTT prom inh -1.7% and PMP22 txn inconclusive.
Screening Cc1cc(OCC(=O)Nc2ncn[nH]2)ccc1Cl returned HTT prom inh -2.4% and PMP22 txn -0.1%.
`CC1CCc2c(sc3nnn(CCCCOc4ccc(Cl)cc4)c(=O)c23)C1` (centres undefined) gave HTT prom inh 5.0% and PMP22 txn 3.5%.
Screening Cc1cccc(C(=O)N(Cc2nc(-c3ccc(Cl)cc3)no2)C(C)C)c1 returned HTT prom inh inconclusive and PMP22 txn inconclusive.
For CCCCNC(=O)c1ccc(-c2nc(CN3CCc4ccccc43)c(C)o2)cc1 the results were HTT prom inh -38.3% and PMP22 txn -6.1%.
`CCOc1ccc(OCC)c(NS(=O)(=O)c2ccc3c(c2)CCCN3C(C)=O)c1` gave HTT prom inh -21.3% and PMP22 txn -19.5%.
CCCCn1c(NCc2cc(Br)ccc2O)nc2ccccc21 was read as HTT prom inh inconclusive and PMP22 txn inconclusive.
`COc1cccc(Nc2sc(C(=O)c3ccc(F)cc3)c(N)c2C(=O)NCc2ccc(C)cc2)c1` gave HTT prom inh inconclusive and PMP22 txn inconclusive.
For Cc1c(Cl)cccc1NS(=O)(=O)c1ccc2[nH]cc(C(=O)NC3CCCC3)c(=O)c2c1 the results were HTT prom inh inconclusive and PMP22 txn inconclusive.
For N=C(N)c1ccc(OCCCCCOc2ccc(C(=N)N)cc2)cc1 the results were HTT prom inh inconclusive.
CN1CCc2nc3sc(C(=O)Nc4c(F)cccc4F)c(N)c3cc2C1 was read as HTT prom inh 64.8%[activator] and PMP22 txn -97.7%.
`N#C/C(=C\c1ccc(-c2ccc(C(=O)O)cc2)o1)c1nc2ccccc2[nH]1` gave HTT prom inh 38.3%[activator] and PMP22 txn -29.5%.
COc1ccc(CNCCSc2nnnn2-c2ccccc2)c(OC)c1 was read as HTT prom inh -14.8% and PMP22 txn inconclusive.
For COc1ccc(-c2nc(Cn3c(SCc4ccccc4F)nc4cccnc43)c(C)o2)cc1 the results were HTT prom inh inconclusive and PMP22 txn inconclusive.
For C#CCOc1ccc(-c2nnc(Nc3ccc(NC(C)=O)cc3)c3ccccc23)cc1 the results were HTT prom inh -23.8% and PMP22 txn inconclusive.
Screening COc1ccc(Cl)cc1NC(=O)CSc1nc(=O)[nH]c2c1CCCC2 returned HTT prom inh -12.3% and PMP22 txn -8.4%.
COc1cccc(CNC(=O)c2ccc3oc(=O)n(Cc4ccccc4)c3c2)c1 was read as HTT prom inh inconclusive and PMP22 txn -10.4%.
`CCn1cc(S(=O)(=O)c2ccc(C)cc2)c(=O)c2cc(F)c(N3CCCCCC3)cc21` gave HTT prom inh 9.7% and PMP22 txn -6.1%.
`O=C(Cn1cc(S(=O)(=O)Cc2ccc(F)cc2)c2ccccc21)NCc1ccccc1Cl` gave HTT prom inh -14.1% and PMP22 txn -32.6%.
Cc1ccc(C2=CC(c3ccccc3F)n3c(nc4ccccc43)N2)cc1C (centres undefined) was read as HTT prom inh -1.3% and PMP22 txn inconclusive.
Cc1oc(-c2cccc(Br)c2)nc1CN1CCC(C(=O)NCCc2ccc(Cl)cc2)CC1 was read as HTT prom inh 6.0% and PMP22 txn 1.8%.
O=C(Nc1ccc(Cl)cc1)c1cc(S(=O)(=O)N2CCc3ccccc32)ccc1F was read as HTT prom inh inconclusive and PMP22 txn inconclusive.
S=c1[nH]c2ccccc2s1 was read as HTT prom inh 5.5%[116 µM].
COc1ccccc1N1CCN(C(=O)CNS(=O)(=O)c2ccc(Br)s2)CC1 was read as HTT prom inh -39.1% and PMP22 txn -33.3%.
For Cc1ccc(CCNc2ncnc3onc(C)c23)cc1 the results were HTT prom inh inconclusive and PMP22 txn inconclusive.

A draw from above in order of length of the SMILES, falling:
`O=C(Cn1cc(S(=O)(=O)Cc2ccc(F)cc2)c2ccccc21)NCc1ccccc1Cl` gave HTT prom inh -14.1% and PMP22 txn -32.6%.
COc1ccccc1N1CCN(C(=O)CNS(=O)(=O)c2ccc(Br)s2)CC1 was read as HTT prom inh -39.1% and PMP22 txn -33.3%.
Cc1ccc(C2=CC(c3ccccc3F)n3c(nc4ccccc43)N2)cc1C (centres undefined) was read as HTT prom inh -1.3% and PMP22 txn inconclusive.

(more compounds)
CCOc1ccccc1N1CC(c2nc3ccccc3n2CCOc2ccc(OC)cc2)CC1=O (centres undefined) was read as HTT prom inh inconclusive and PMP22 txn inconclusive.
COc1ccccc1N1CCN(S(=O)(=O)CCNC(=O)COc2ccc(F)cc2)CC1 was read as HTT prom inh inconclusive and PMP22 txn inconclusive.
N#Cc1ccccc1NC(=O)C(=O)NCCc1csc(-c2ccc(C(F)(F)F)cc2)n1 was read as HTT prom inh -1.9% and PMP22 txn -5.2%.
`CCC(Sc1nncn2c1cc1occc12)C(=O)Nc1ccc(C)c(Cl)c1` (centres undefined) gave HTT prom inh -21.5% and PMP22 txn 16.8µM*.
`CCOC(=O)Cc1ccc(NC(=O)N(Cc2ccc(CC)cc2)Cc2cn[nH]c2-c2ccc(OC)cc2)cc1` gave HTT prom inh inconclusive and PMP22 txn inconclusive.
CCOC(=O)C1=C(CN(C)Cc2ccccc2)NC(=O)NC1c1ccc(OC(C)C)cc1 (centres undefined) was read as HTT prom inh inconclusive and PMP22 txn inconclusive.
